Screens from PubChem.
CapD inh: blocks the Bacillus anthracis CapD enzyme. purified CapD enzyme, fluorescence intensity read-out; hits give low values; some hits fall short of the stated cut. z-score (test concentration not listed). actives 0.23% (n = 140,000). AID 492967;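 active means z-score under -4 in either of two replicates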;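 further: stock transfer was 100 nL into about 40 µL; score is relative to mean and spread of the plate; one replicate is shown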
AID504770: E. coli YBA685 growth inhibition, screen for V. cholerae RctB inhibitors; E. coli YBA685 rctB-dependent plasmid, OD600 growth, 3 h; hits give low values; z-score (test concentration not listed); actives 0.27% (n = 130,000);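 active means z-score under -2 on both plates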;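 further: wells of about 30 µL received 100 nL stock; score is relative to mean and SD of the test wells; the first replicate is given; strong numbers were not always called active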
An asterisk follows results filed as active; i = inactive; . = no result given; & = joins results of further samples. Some of the compounds tested; the hit share may differ from the screen's.

SMILES | CapD inh | AID504770
CCOC(=O)c1[nH]c2cc(OC)c(OC)cc2c1N1C(=O)CCC1=O | -0.305 | 0.2
CS(=O)(=O)N(CC(=O)N1CCN(Cc2ccc3c(c2)OCO3)CC1)Cc1ccccc1 | . | 0.15
CCn1c(SCC(N)=O)nnc1-c1cccs1 | . | -0.4
Cn1nc(C(F)(F)F)c(/C=N/OCc2ccc([N+](=O)[O-])cc2)c1Cl | -0.4 | .
CC(=O)Oc1c(S(=O)(=O)c2ccccc2)c(C)nn1-c1ccccc1 | 0.115 | 0.3
CCCOC(=O)COc1ccc2c(=O)c(-c3ccccc3OC)coc2c1 | -0.075 | 0.1
CCc1cc2c(=O)c(-c3cscn3)coc2cc1OC | 0.645 | 0.2
Nc1c(C(=O)Nc2nccs2)sc2nc3c(c(-c4ccc(Cl)cc4)c12)CCC3 | 1.27 | .
CCN1C(=O)c2cccc3c(S(=O)(=O)NCCO)ccc1c23 | 2.12 | -0.1
C(=N\N1CCN(C(c2ccccc2)c2ccccc2)CC1)/c1cccnc1 | . | 0.9
OCCN/N=C/c1ccc(Br)cc1 | . | -0.2
O=C(O)c1cc2c(nc3ccccn32)s1 | . | -0.2
O=C(c1ccc2cc[nH]c2c1)N1CCN(C(c2ccccc2)c2ccccc2)CC1 | -0.3 | .
CNc1nc(N2CCOCC2)nc(N(c2ccccc2)c2ccccc2)n1 | 0.13 | -0.55
CCOC(=O)C1CCN(C(=O)c2ccc(CC)cc2)CC1 | -0.16 | -0.05
COc1ccc(-c2nc(CS(=O)(=O)CC(=O)NC3CCCCC3C)c(C)o2)cc1 (stereo not given) | -0.08 | 0.25
O=C(c1noc2c1CCc1ccccc1-2)N1CCCC1 | -0.3 | -2.05
COc1ccc(-n2ncc(C(=O)NCCC(C)C)c2C2CCNCC2)cc1 | -1.6 | -0.65
COc1ccc(OC)c(-n2c(C)cc(/C=C3/C(=N)N4C(=NC3=O)SN=C4S(=O)(=O)CC(C)C)c2C)c1 | -1.23 | 2.2
CCOc1cc(/C=N/NC(=O)c2nnn(-c3nonc3N)c2CN2CCCCCC2)ccc1O | -0.315 | .
CC12C(=O)N(c3ccc4ccccc4c3)C(=O)C1C1c3ccccc3C2c2ccccc21 (stereo not given) | -0.535 | .
COc1ccc(C2C=C(Nc3ccc(C)cc3)C(=O)N2c2ccc(C)cc2)c(OC)c1 (stereo not given) | 1.85 | .
CCOc1ccc(N2C(=S)NC(c3ccc(N4CCOCC4)cc3)C(C(=O)N3CCOCC3)=C2C)cc1 (stereo not given) | . | -0.2
CSC1=NCCN1C(=O)COc1ccc2ccccc2c1 | . | 0.6
COc1ccc2c(c1)nnc1nnc(SCC(=O)N3CCOCC3)n12 | 0.43 | .
O=C(NCc1ccccc1)c1ccc(CS(=O)(=O)Cc2ccccc2F)o1 | 0.115 | 0.15
CCCCNC(=O)O/N=C(\C)c1ccc2cc(OC)ccc2c1 | 0.22 | .
COc1ccc2nc(NNC(=O)c3ccc(S(=O)(=O)N4CCCC4)cc3)sc2c1 | . | 1.3
CC(C)(C)C(=O)NC1CCN(S(C)(=O)=O)CC1 | . | -0.35
COc1cc(OC)cc(C(=O)NCCCN(C)C)c1 | -0.08 | .
CCN(C(C)=O)c1nc(CSc2nnc(C3CCCCC3)n2N)cs1 | . | -0.6
O=C(CCN1C(=O)C2C3C=CC(C3)C2C1=O)N1CCN(C(=O)CCN2C(=O)C3C4C=CC(C4)C3C2=O)CC1 (stereo not given) | -0.585 | .
COC(=O)c1ccc(OCC(O)CN2C(=O)c3ccccc3C2=O)cc1 (stereo not given) | -0.005 | -0.65
O=C(OCN1C(=O)c2ccccc2C1=O)c1ccc2c(c1)C(=O)N(Cc1ccco1)C2=O | . | -0.05
COC(=O)CSc1nc2sc3c(c2c(=O)n1-c1ccc(OC)cc1)CCCC3 | -0.265 | .
O=C(CSc1ccc(-c2cccs2)nn1)c1ccccc1 | -0.65 | -0.1
CCOC(=O)c1c(C)n(-c2ccccc2)c2c1cc(OC(=O)C(C)(C)C)c1ccccc12 | 0.075 | .
CCO/C=N/c1oc(-c2ccccc2)c(-c2ccccc2)c1C#N | 9.12 | 1.7
COC(=O)c1ccc(S(=O)(=O)N(CCO)Cc2cc3cc(OC)c(OC)cc3[nH]c2=O)cc1 | . | -0.2
O=C(CS(=O)(=O)c1c[nH]c2ccccc12)NC1CCCCC1 | -0.605 | -1.1
CCc1ccc(N=CC23c4ccccc4C(c4ccccc42)C2C(=O)N(c4ccc(OC)cc4)C(=O)C23)cc1 (stereo not given) | -0.32 | .
CC1CCC(C(=O)NC(C(=O)O)C(C)C)CC1 (stereo not given) | 0.75 | 1.5
CC(C)(C)C(=O)COC(=O)C1(c2ccc(F)cc2)CCCC1 | -0.185 | -0.95
CSc1cccc(NC(=O)CCc2nc(C3=CCN(C)CC3)no2)c1 | -0.085 | -0.5
CCOC(=O)C(C#N)C(=O)c1c(-c2c(Cl)cccc2Cl)noc1C (stereo not given) | -1.01 | 0

Overlap with the part before: 4 entries; new compounds follow.
SMILES | CapD inh | AID504770
CC1CCC(C(=O)NC(C(=O)O)C(C)C)CC1 (stereo not given) | 0.75 | 1.5
CC(C)(C)C(=O)COC(=O)C1(c2ccc(F)cc2)CCCC1 | -0.185 | -0.95
CSc1cccc(NC(=O)CCc2nc(C3=CCN(C)CC3)no2)c1 | -0.085 | -0.5
CCOC(=O)C(C#N)C(=O)c1c(-c2c(Cl)cccc2Cl)noc1C (stereo not given) | -1.01 | 0
CNC(=S)NC1CCCCC1 | -0.25 | .
COc1ccc(Cl)cc1-c1nc(SCC(=O)NC2CCS(=O)(=O)C2)n[nH]1 (stereo not given) | . | -0.3
CC(=O)N/N=C(\Cc1nc2ccccc2[nH]1)c1ccccc1 | . | 0.5
O=C(Nc1ccc2nccnc2c1)c1cccnc1Oc1ccc(Cl)cc1 | 8.29 | 0.75
Cn1/c(=N/N=C2c3cc(S(=O)(=O)NCCO)ccc3-c3ccc(S(=O)(=O)NCCO)cc32)sc2ccccc21 | . | 0
CCC(=O)c1ccc(OC(=O)c2cn(-c3ccccc3)nc2-c2ccccc2)cc1 | 0.255 | -0.55
O=C(OCC(=O)N1CCCC1)c1ccc2c(c1)OCO2 | . | 0.15
COc1cccc2c1OCC(C(=O)Nc1ccc(OC(F)(F)F)cc1)=C2 | -0.825 | .
COc1ccc(-n2c(SCC(=O)N(C)Cc3ccccc3)nc3cc(C(=O)NCc4ccco4)ccc3c2=O)cc1OC | -0.34 | .
O=C(NC1CC1)c1nc(-c2ccccc2)no1 | -0.34 | -0.65
CC1CC(NC(=O)/C=C/C(=O)O)CC(C)(C)C1 (stereo not given) | -0.19 | 1
O=C(c1ccccc1)c1ccc(O)cc1O | -2.64 | -1
COC(=O)c1ccc(COC(=O)c2ccc3[nH]c(C)c(C)c3c2)o1 | . | 0.85
O=C(CCS(=O)(=O)c1ccc2c(c1)SCC(=O)N2)NCc1cccs1 | 0.23 | 0.45
Cc1nc(C)c(-c2csc(Nc3ccccc3)n2)s1 | 0.555 | 0.05

Six structures out of the list, arranged by number of heavy atoms, smallest number first.
SMILES | CapD inh | AID504770
CNC(=S)NC1CCCCC1 | -0.25 | .
O=C(NC1CC1)c1nc(-c2ccccc2)no1 | -0.34 | -0.65
Cc1nc(C)c(-c2csc(Nc3ccccc3)n2)s1 | 0.555 | 0.05
COC(=O)c1ccc(COC(=O)c2ccc3[nH]c(C)c(C)c3c2)o1 | . | 0.85
COc1cccc2c1OCC(C(=O)Nc1ccc(OC(F)(F)F)cc1)=C2 | -0.825 | .
COc1ccc(-n2c(SCC(=O)N(C)Cc3ccccc3)nc3cc(C(=O)NCc4ccco4)ccc3c2=O)cc1OC | -0.34 | .

Going on with the list:
SMILES | CapD inh | AID504770
CC(C)CC(=O)N1CCN(C(=O)COc2ccc(-c3ccccc3)cc2)CC1 | 0.475 | -0.35
O=C(Oc1ccc(Oc2ccccc2)cc1)N1CCC(O)CC1 | 0.105 | 0.05
c1csc(-c2nnc(CON=C3c4ccccc4-c4ccccc43)o2)c1 | . | 0.35
Cc1onc(-c2c(F)cccc2Cl)c1C(=O)N=C(N)N1CC(C)OC(C)C1 (stereo not given) | -0.225 | -0.85
N=C1C(c2ccc(Br)cc2)=C(O)C2CCc3ccccc3N12 (stereo not given) | . | -0.4
O=c1cc(C(F)(F)F)nc(Cc2c(Cl)cccc2Cl)[nH]1 | 8.45 | -0.55
Cc1ccc(C(=O)N2CCc3c([nH]c4ccccc34)C2c2ccc3c(c2)OCO3)cc1 (stereo not given) | -0.37 | .
N#CC1=C(N)S[C@@H](C(=O)c2ccc(F)cc2)[C@@H]1c1ccc(F)cc1 | -0.45 | .
N#CC(C#N)=C(N)c1ccccc1 | -0.355 | -1.1
O=C(c1ccccc1)N1CCOCC1 | -0.775 | .
O=C(NCc1ccc(F)cc1)c1ccc(N2CCCS2(=O)=O)cc1 | -0.055 | -1
NC(CO)Cc1ccccc1 (stereo not given) | -0.065 | 2.85
CCCCc1ccc(C(=O)N/C(=C\c2ccc(C)cc2)C(=O)Nc2ccc(Cl)c([N+](=O)[O-])c2)cc1 | -0.98 | .
O=S(=O)(NCC(Nc1ccccc1)c1ccccc1)c1ccc(Cl)cc1 (stereo not given) | -0.14 | -0.75
COC(=O)C1=C(CSc2nc3ccccc3o2)NC(=O)NC1c1cccc(OC)c1 (stereo not given) | . | 0
CC1CC(C)(C)NC(=S)N1CCCC(=O)N1CCN(c2ccccc2)CC1 (stereo not given) | 35.4 | .
CC[n+]1ccsc1Nc1c(C)cccc1C | 0.42 | -0.1
CCCn1c(NC(=O)[C@@H](NC(=O)c2cc(OC)cc(OC)c2)C(C)C)nc2ccccc21 | . | -0.6
CCN(c1ccc(OC)cc1)S(=O)(=O)c1ccc2c(c1)CC(C)N2C(C)=O (stereo not given) | -0.075 | -1.1
COC(=O)c1c(NC(=O)/C(C#N)=C/c2ccco2)sc(C)c1C | . | 0.3
Cc1cc(C)c2c(=O)cc(-c3ccccc3Cl)oc2c1 | -1.29 | -0.25
CC(C)(C)c1ccc(-c2cc3nc(-c4cccs4)cc(C(F)(F)F)n3n2)cc1 | 1.39 | .
COc1ccc(CCC(=O)Nc2ccc(-c3noc(-c4ccc(OC)c(OC)c4)n3)cc2)cc1 | 0.675 | 0.2
Cc1ccc(OCC2CN(Cc3ccccc3)C(=O)O2)cc1 (stereo not given) | -0.665 | -0.1
CCOC(=O)c1cc(C)n(CC(=O)OCc2ccc(C#N)cc2)c1C | . | -0.8
COc1ccc(NC(=O)C(C)NC(=O)C(c2ccccc2)c2ccccc2)cc1 (stereo not given) | i | 0.4
FC(F)(F)Oc1ccc(-n2c(CSCc3cccc4ccccc34)n[nH]c2=S)cc1 | -0.015 | .
CCOC(=O)c1sc2nc(CC(=O)OC)nc(NCc3ccccc3Cl)c2c1C | 3.58 | .
CCC(c1nnnn1C1CCCC1)N(Cc1cccs1)Cc1cc2cccc(C)c2[nH]c1=O (stereo not given) | . | 1.25
O=C1NC(=O)C(=Cc2ccc(OCCOc3ccc([N+](=O)[O-])cc3)cc2)C(=O)N1 | -1.43 | .
CN(C1CCCC1)C1CCN(c2ccc3nnc(-c4ccc(F)cc4)n3n2)CC1 | 0.185 | 0.15
O=C(c1ccc2c(c1)N(Cc1ccccc1)CCS2)N1CCN(c2ccccn2)CC1 | 74 | 1.85
CCS(=O)c1ccccc1C(=O)NCc1ccc(F)cc1 (stereo not given) | . | 0
CCOC(=O)c1c(C#N)c(C)n(-c2ccccc2)c1C | 0 | -0.3
c1ccc(-c2csc(Nc3cccnc3)n2)cc1 | -0.385 | 1.55
CN1CCN(C(=O)c2cc3ccccc3o2)CC1 | 0.03 | -0.4
Cc1cc2nc(C(Cc3ccccc3)NC(=O)c3ccccc3)[nH]c2cc1C (stereo not given) | 0.645 | .
CSc1ncc(C(=O)NN)n1C | -0.5 | 1.65
COc1cccc(C(=O)N2CCCCCC2)c1 | 0.52 | -0.15
Cc1ccc(SCC(=O)Nc2c(Br)cnn2C)cc1 | -0.39 | -0.3
CN(Cc1cccs1)C(=O)C1CCN(S(=O)(=O)c2ccccc2)CC1 | . | -0.05
CCCCN1Cc2c(sc(C)c2C)N(C(=O)c2ccccc2)C1 | . | 0.15
COc1ccc(C2CC(=O)C3=C(C2)NC(C)=C(C(=O)OC2CCCC2)C3c2cccc([N+](=O)[O-])c2)cc1 (stereo not given) | -0.64 | .
CCn1c(NCc2ccc(Br)cc2)nc2ccccc21 | -0.185 | -1
CC(C)(C)C(=O)[C@H]1[C@H](c2ccccc2)C(C#N)(C#N)[C@@H]2c3ccccc3C=CN21 | 6.25 | .
CCCOc1ccccc1C1NC(=S)NC(C)=C1C(=O)OC1CCCC(C)C1 (stereo not given) | -0.605 | 0.1
NS(=O)(=O)c1cc(C2(O)NC(=O)c3ccccc32)ccc1Cl (stereo not given) | 0.265&13.4 | -0.55
C=CCc1c(C)c(C#N)c2nc3ccccc3n2c1NCCOCCO | . | 2.65
Cc1noc(N)c1C(=O)OCc1ccc(C#N)cc1 | . | -0.25
O=C(CN1CCN(Cc2ccccc2)C1=O)NCCCN1CCOCC1 | 0.165 | -0.35
COCCn1c(=O)c(=O)n(Cc2ccc(C(=O)OC)cc2)c2cc(C(F)(F)F)ccc21 | 1.91 | .
O=C1NC(C(F)(F)F)(C(F)(F)F)N=C2SC=C(C3CC3)N12 | 0.46 | -0.55
